MARV entry inh: qHTS for inhibitors of binding or entry into cells for Marburg Virus. AID 540276, 2011. Potency, µM (titrated, usually from 37.8 µM), for inactives: top-dose activity change, negative = inhibition, hits mostly inhibitors. actives 1.8% (n = 300,000). Marburg virus pseudotyped entry inhibition, cell reporter; control for the full effect not named in the record; about a third of the inactives were read at about 46 µM; active = well fitted inhibition curve with a large enough effect; inconclusive = small, poorly fitted or top-dose-only effect, or effect the other way; inactive = flat fitted curve, though single readings scatter; tested in HEK293 cells; about a fifth of its hits are not listed in these tables; also: % is scaled to controls: 0 for no effect and ±100 for the full control effect; luciferase read-out
RE007 growth inh: qHTS Assay for Inhibitors of the HIV-1 protein Vpr | Potency, µM (doses to about 92.2 µM), for the others: top-dose activity change, negative = less growth | actives 0.21% (n = 360,000) | S. pombe RE007 Vpr strain, BacTiter-Glo ATP luminescence, 24 h; control for the full effect not named in the record; active = well fitted falling curve with a large enough effect; inconclusive = small, poorly fitted or top-dose-only effect; inactive = no such curve, though single readings can be large or run the other way;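 also: % is scaled to controls: 0 for no effect and ±100 for the full control effect; nearly all actives have a fitted effect of over 50% in size; the assay follows cell death caused by Vpr and the record does not say whether a fall means rescue or toxicity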
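Fission yeast strain RE007, carrying one chromosomally integrated HIV-1 vpr copy, was seeded at OD 0.01 in PMG+AL medium with 23 nL pinned compound. After 24 h at 30 °C and 99% humidity, viability was read by BacTiter-Glo luminescence.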
SARS PLpro yeast: qHTS of Yeast-based Assay for SARS-CoV PLP | actives 0.19% (n = 330,000) | Potency, µM (highest dose often 32.9 µM), without a hit: at the top dose activity, positive = growth rescue | S. cerevisiae expressing SARS-CoV PLpro, growth rescue; control for the full effect not named in the record | AID 485353, 2010; also: 0% is about no effect; nearly all actives have a fitted effect of over 55% in size; growth read by luminescence after 48 h
NS1 inh: qHTS Assay for Inhibitors of Influenza NS1 Protein Function; AID 2326, 2010; S. cerevisiae slowed by influenza A NS1, growth recovery by OD600; actives 0.4% (n = 270,000); Potency, µM (titrated, usually from 46.1 µM), for the others: at the top dose activity, positive = more growth; also: actives are rising curves; nearly all actives have a fitted effect of over 50% in size
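S. cerevisiae expressing influenza A NS1, grown in glucose, washed, then diluted 1:100 into pH 6.0 -URA galactose medium with 23 nl compound. Growth recovery read as OD600; NS1-free strain serves as control.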
Cruzain noTriton: qHTS Assay for Promiscuous and Specific Inhibitors of Cruzain (without detergent); Potency, µM, for inactives: max response, negative = inhibition, hits mostly inhibitors; actives 2.3% (n = 200,000); purified cruzain, Z-FR-AMC fluorescence, no detergent; Cruzipain (Trypanosoma cruzi), P25779; active = well fitted curve in the direction sought with a large enough effect; inconclusive = small, poorly fitted or top-dose-only effect, or another doubt; inactive = no such curve, though single readings can be large; an effect the other way counts as inactive or inconclusive;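 also: plate controls were enzyme without inhibitor for no effect and buffer without enzyme for full effect; nearly all actives have a fitted effect of over 40% in size; top concentration of the series not given in the record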
Target sequence (P25779 123-467 limits assumed): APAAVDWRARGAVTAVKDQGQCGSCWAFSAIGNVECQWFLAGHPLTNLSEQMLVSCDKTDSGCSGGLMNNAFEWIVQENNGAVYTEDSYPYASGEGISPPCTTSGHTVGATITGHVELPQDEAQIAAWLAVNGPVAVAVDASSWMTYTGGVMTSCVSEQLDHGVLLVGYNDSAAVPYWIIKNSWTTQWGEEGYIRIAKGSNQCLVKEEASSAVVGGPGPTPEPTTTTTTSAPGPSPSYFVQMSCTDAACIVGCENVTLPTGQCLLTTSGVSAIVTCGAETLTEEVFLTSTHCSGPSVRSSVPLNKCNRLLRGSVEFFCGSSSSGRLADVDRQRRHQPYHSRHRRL
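Purified cruzain at 1.5 nM, pre-incubated 15 min with compound at room temperature in 100 mM sodium acetate pH 5.5, 5 mM DTT, 0.00005% Triton X-100. Reaction started with 2 uM Z-FR-AMC; AMC fluorescence increase over 60 s gives rate.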
2A StopGo: High Throughput Screening for Foot and Mouth Disease Virus Antivirals. AID 1159524, 2015. Potency, µM (highest dose often 57.9 µM), for the others: at the highest dose signal change, negative = less light. human cells with a luciferase reporter of 2A StopGo recoding; control for the full effect not named in the record. actives 1.2% (n = 410,000); active = well fitted falling curve with a large enough effect; inconclusive = small, poorly fitted or top-dose-only effect; inactive = no such curve, though single readings can be large or run the other way; tested in HEK293T cells; also: % is scaled to controls: 0 for no effect and ±100 for the full control effect; nearly all actives have a fitted effect of over 45% in size; luciferase light after 4 h
Cruzain Triton: qHTS Assay for Promiscuous and Specific Inhibitors of Cruzain (with detergent). Cruzipain (Trypanosoma cruzi), P25779. purified cruzain, Z-FR-AMC fluorescence, 0.01% Triton. Potency, µM, inactives show max response, negative = inhibition, hits mostly inhibitors. actives 0.43% (n = 200,000); active = well fitted curve in the direction sought with a large enough effect; inconclusive = small, poorly fitted or top-dose-only effect, or another doubt; inactive = no such curve, though single readings can be large; an effect the other way counts as inactive or inconclusive;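 also: plate controls were neutral wells for no effect and buffer without enzyme for full effect; nearly all actives have a fitted effect of over 40% in size; top concentration of the series not given in the record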
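Purified cruzain (1.5 nM final) was preincubated with compounds for 15 min at room temperature in 100 mM sodium acetate pH 5.5, 5 mM DTT, 0.01% Triton X-100. Reaction started with 2 uM Z-FR-AMC; AMC fluorescence change over 60 s gave activity.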
Lassa entry inh: qHTS for Inhibitors of binding or entry into cells for Lassa Virus. actives 1.2% (n = 300,000). Potency, µM (doses to about 37.9 µM), inactives show top-dose activity change, negative = inhibition, most hits filed as inhibitors. Lassa virus pseudotype entry inhibition, cell reporter; control for the full effect not named in the record; active means well fitted inhibition curve with a large enough effect; inconclusive means small, poorly fitted or top-dose-only effect, or effect the other way; inactive means flat fitted curve, though single readings scatter; tested in HEK293 cells; also: % is scaled to controls: 0 for no effect and ±100 for the full control effect; nearly all actives have a fitted effect of over 50% in size; luciferase read-out
Numbers without * were called inactive; ? = inconclusive; · = not tested or not shown; & = joins results of further samples; [ ] = another dose, or the depositor's remark. Unless noted, calls follow the shape of the dose curve; as a rule, active means well fitted rising curve with a large enough effect; inconclusive means small, poorly fitted or top-dose-only effect; inactive means no such curve, though single readings can be large or run the other way. Potency is read from the fitted curve at half-maximal effect.

SMILES	MARV entry inh	RE007 growth inh	SARS PLpro yeast	NS1 inh	Cruzain noTriton	2A StopGo	Cruzain Triton	Lassa entry inh
CCOP(=O)(OCC)C(Nc1cccc([N+](=O)[O-])c1)c1ccc(N(C)C)cc1 (stereo not drawn)	·	-1%	0%	-17%	·	-17%	·	·
COC(=O)C1=C(C)N(c2ccc(Cl)cc2)/C(=C/c2ccc(O)cc2)C1=O	?	9%	0%	0%	·	25µM*	·	-20%
CCCc1c(OCCCCc2nn[nH]n2)ccc(C(C)=O)c1O	16%&1%	4%[18.4 µM]	-3%&-5%	3%	16%&21%&1%	0%	-0.5%&0.0%&-1.4%	0%
O=c1cc(-c2ccccc2)c2ccc3c(c2o1)CN(Cc1ccccc1)CO3	3%[46.1 µM]	·	·	·	?	0%	-25%	19%[46.1 µM]
COc1ccccc1CNC(=O)c1c(-c2ccccc2Cl)noc1C	·	12%	4%	6%	·	-11%	·	·
Cc1nc(N)sc1C(=O)N/N=C/c1cccnc1	?	-18%	-2%	·	·	-6%	·	9%[46.1 µM]
COc1cccc(COC(=O)C2CCN(C(=O)c3ccccc3C)CC2)c1OC	2%[46.1 µM]	16%	4%	-15%	·	-24%	·	20%[46.1 µM]
Cc1cc(C)c(C#N)c(SCc2[nH]nc3c2C(c2ccccc2)C(C#N)=C(N)O3)n1 (stereo not drawn)	?	-10%	·	7%	-15%	0%	-13%	-11%
CCCN1CCN(C(=O)c2oc3ccccc3c2NC(=O)C2CC2)CC1	3%[46.1 µM]	-6%	19%	7%	·	4%	·	19%[46.1 µM]
CC1CCCCN1Cc1ccc(N(C)C)cc1 (stereo not drawn)	-25%	-12%	-1%	-7%	9%	·	0.7%	2%
Cc1ccccc1NC(=O)Cc1nc(COC(=O)c2cccc(C)c2O)cs1	5%	-5%	-3%	-2%	·	-12%	·	0%
COc1ccc(CCN(Cc2nc3ccccc3c(=O)[nH]2)C(=O)c2ccco2)cc1OC	-18%	4%	2%	8.9µM*	-7%	-18%	3.3%	-14%
Cc1cccc(OCCCC(=O)Nc2ccccc2C(F)(F)F)c1	?	-25%	-6%	-4%	0%	-8%	-4.3%	-4%
COc1ccc(OCC(O)CN2C(=O)c3ccccc3C2=O)cc1 (stereo not drawn)	?	-10%	1%	-5%	·	55%[activator]	·	14%
CN(CC(=O)Nc1ccccc1Cl)C(=O)c1cccc(-n2cccc2)c1	23%	-23%	-9%	·	·	4%	·	15%[46.1 µM]
CC[C@@H](C)[C@H](NC(=O)Cc1c(C)c2c(cc(C)c3c(C)c(C)oc32)oc1=O)C(=O)O	?	5%	0%	11%	·	-10%	·	8%[46.1 µM]
O=C(COC(=O)C1CC2C=CC1C2)Nc1c(Br)cc([N+](=O)[O-])cc1Br (stereo not drawn)	14%	59%	-51%	·	·	?	·	-4%
CSc1cccc(NC(=S)NN(C)C)c1	-12%	?	-1%	2%	·	40%[activator]	·	11%
COc1ccc(CCNC(=O)CN2c3cccc4cccc(c34)S2(=O)=O)cc1OC	-2%[46.1 µM]	-18%	4%	21%	·	5%	·	-1%
CCOc1ccccc1CNC(=O)Cn1ccc2cc(S(=O)(=O)N3CCCC3)ccc21	-18%[46.1 µM]	-7%	1%	1%	·	-10%	·	-16%[46.1 µM]
CSc1ccc(C(c2c(O)c3ccccc3oc2=O)c2c(C)n(C)n(-c3ccccc3)c2=O)cc1 (stereo not drawn)	-7%&-7%[46.1 µM]	-10%	0%	·	?	20%&45%	-3.2%	7%[46.1 µM]
COC(=O)C1=C(C)N(c2ccc(F)cc2)C(=O)C1	2%	11%	-1%	-7%	-4%	0%	1.0%	1%
COc1ccc(N2CCN(Cc3csc(C)c3-c3ccc(C)cc3)CC2)cc1	?	3%	-3%	-3%	·	?	·	?
CCN(CC)C(=O)COc1coc(CN2CCN(c3cccc(Cl)c3)CC2)cc1=O	?	0%	0%	6%	·	16%	·	8%[46.1 µM]
COc1ccc(N2CCN(C(=O)C3CCCN(C(=O)c4cc5sccc5n4C)C3)CC2)cc1 (stereo not drawn)	-3%[46.1 µM]	·	·	·	?	?	-8.4%	·
Next part:
SMILES	MARV entry inh	RE007 growth inh	SARS PLpro yeast	NS1 inh	Cruzain noTriton	2A StopGo	Cruzain Triton	Lassa entry inh
Cc1ccc(NC(=O)CNCc2ccccc2)c(Br)c1	6%[46.1 µM]	-22%	5%	·	·	48%[activator]	·	·
O=S(=O)(Nc1cccc2ccccc12)N1CCCC1	11%	-2%	-1%	-5%	-16%	·	0.3%	14%
Cc1cc(C(=O)NCc2cc(C(=O)O)oc2C)c(C)o1	20%	13%	3%	-10%	-23%	13%	-5.1%	5%
CC(=O)N/C(=C\c1ccccc1)C(=O)OCC(=O)c1c(N)n(CC(C)C)c(=O)n(C)c1=O	-17%	-16%	8%	·	·	-3%	·	14%[46.1 µM]
CCOc1ccc(-c2nonc2NC(=O)c2oc3cc(C)c(C)cc3c2C)cc1OCC	-28%[46.1 µM]	·	·	·	-2%	-15%	-1.6%	5%[46.1 µM]
COc1ccc(CCNC(=O)CCSCc2ccccc2Cl)cc1OC	·	·	·	·	1%	-18%	0.9%	30%[46.1 µM]
O=C(Cc1ccccc1)NCC(=O)OCC(=O)c1ccccc1Cl	9%[46.1 µM]	7%	-3%	-6%	·	7%	·	0%
Cc1cc(NC(=O)CCS(=O)(=O)c2cc3c4c(c2)CCN4C(=O)CC3)ccc1Br	·	·	·	·	3%	-14%	4.0%	12%[46.1 µM]
CCOc1ccc(/C=C(\C#N)C(=O)NC2CC2)c(OCC)c1	14%[46.1 µM]	-6%	·	·	·	5%	·	?
O=C(CSc1oc(-c2ccco2)nc1S(=O)(=O)c1ccccc1)c1ccc(Cl)cc1	?	·	·	·	?	22%	-5.8%	-2%[46.1 µM]
Cc1noc(N)c1C(=O)Nc1ccc(F)c(Cl)c1	-3%	-13%	-3%	-7%	0%	4%	-5.4%	1%
Cc1cc(C(=O)NNC(=O)Cc2ccc(Cl)c(Cl)c2)c(C)o1	17%	-7%	-3%	·	·	2%	·	-3%
O=S(=O)(Nc1ccc(Br)cn1)c1ccc2ccccc2c1	4%[46.1 µM]	1%	-2%	-6%	·	26%	·	?
N#CC1=C(S)N(c2ccc(F)cc2)C(c2cccs2)NC1=O (stereo not drawn)	-2%	22%	4%	0%	0%	-15%	1.0%	12%
CC12CCC(=O)N1C(C(=O)N1CCN(S(=O)(=O)c3cccc(C(F)(F)F)c3)CC1)CS2 (stereo not drawn)	24%	16%	-8%	·	·	-23%	·	13%
Fc1c(F)c(F)c(N=Cc2ccc3ncccc3c2)c(F)c1F	2%	-6%	16%	4%	0%	59%[activator]	-3.6%	0%
CC(=O)c1ccc(Nc2c3c(c(C#N)c4nc5ccccc5n24)CCC3)cc1	·	·	-2%	22%	-26%	·	-2.8%	·
CCC(C)Nc1nc(-c2ccc3c(c2)NC(=O)CO3)cs1 (stereo not drawn)	0%	-8%	3%	14%	-6%	-1%	-6.4%	-27%
O=C(NC1CCCC1)C(c1ccncc1)N(C(=O)Cn1nnc(-c2ccccc2F)n1)c1cccc(F)c1 (stereo not drawn)	-8%[46.1 µM]	3%	-1%	14%	·	-9%	·	0%
CC(C)N(Cc1ccccc1)CC(O)COc1ccc(S(=O)(=O)N2CCOCC2)cc1Cl (stereo not drawn)	?	-8%	1%	·	·	-30%	·	-10%
CC(C)NC(=O)COc1ccccc1C#N	0%	-4%	3%	·	·	6%	·	0%
COc1ccc(CNC(=O)Cc2csc(Nc3nc(=S)[nH]c4ccccc34)n2)cc1	-16%	-20%	-1%	-1%	?	16%	-0.7%	7%
O=C1CC(N2CC=C(c3ccc(F)cc3)CC2)C(=O)N1c1ccc(F)cc1 (stereo not drawn)	4%	?	-27%	1%	-20%	-1%	-9.8%	2%
Cc1ccc(C)c(NC(=S)NCc2cccn2C)c1	1%	·	0%	13%	-23%	·	0.8%	·
C/C(=N\N1CCN(C2c3ccccc3-c3ccccc32)CC1)c1cccnc1	-1%	4%	-7%	?	3%	?	-4.8%	14%
Remaining list, next part.
SMILES	MARV entry inh	RE007 growth inh	SARS PLpro yeast	NS1 inh	Cruzain noTriton	2A StopGo	Cruzain Triton	Lassa entry inh
COc1ccc(OCC(=O)NCc2cccnc2)cc1	-5%[46.1 µM]	-20%	?	-9%	-7%	-17%	4.2%	-1%
CC(C)c1nnc(NC(=O)C2CC(=O)N(CCc3ccc(F)cc3)C2)s1 (stereo not drawn)	2%[46.1 µM]	32%	3%	14%	·	-25%	·	27%
Cc1nn(C)c(C)c1NS(=O)(=O)c1ccc(OC(F)(F)F)cc1	?	9%	-5%	·	·	?	·	0%
CC(C)(C)N1C(=O)[C@H]2[C@@H](c3ccc(Br)cc3)N3C(=O)N(c4ccccc4)C(=O)[C@@]3(C)[C@H]2C1=O	·	7%	-4%	3%	·	-17%	·	·
CC1CCC(NC(=O)c2ccc3c(c2)N(Cc2cccc(Cl)c2)C(=O)c2ccccc2S3(=O)=O)CC1 (stereo not drawn)	·	·	·	·	?	11%	-2.4%	10%[46.1 µM]
CCN1CCN(CCCNC(=O)c2ccc3nc(Cc4ccc(OC)cc4)oc3c2)CC1	·	·	·	·	-6%	-19%	-2.3%	10%[46.1 µM]
Cc1nn(CC(=O)NCCCN2CCN(C)CC2)c(=O)c2cc(-c3ccccc3)nn12	·	0%	-3%	-5%	·	-5%	·	·
CN(C)c1oc(-c2ccco2)nc1C#N	11%	-1%	6%	-17%	-15%	9%	-4.5%	2%
Cc1ccc(S(=O)(=O)N2N=C3CCCCC3C2(O)C(F)(F)F)cc1 (stereo not drawn)	-8%[46.1 µM]	-15%	1%	·	·	7%	·	-20%
O=C(NC1CCCc2ccccc21)c1cccc(Br)c1 (stereo not drawn)	2%	11%	-9%	-19%	-17%	40%[activator]	-7.4%	-5%
COc1cccc(NC(=S)N2CCC(C(=O)c3ccc(F)cc3)CC2)c1	-1%[46.1 µM]	6%	·	·	·	12%	·	?
COc1ccc(CCn2c(N3CCN(C)CC3)nc3c2c(=O)[nH]c(=O)n3C)cc1	?	16%	7%	0%	-10%	-3%	4.6%	3%
C#CCSc1nnc(-c2ccccc2)c(=O)[nH]1	2%&-1%	1%	-19%	-58%	2%	34%[activator]	-9.4%	?
